# Bst PK mod: pyruvate kinase (B. stearothermophilus) modulation. partly purified Bacillus stearothermophilus pyruvate kinase, luminescence ATP production; ribose 5-phosphate activator present at AC10. Potency, µM. 51,000 compounds, 1.2% hits. AID 361; in the data active means potency below about 11 µM; inconclusive means mostly about 12 µM to 25 µM; inactive means weaker than that;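 the screen sought inhibitors and activators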;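 further: potency means the concentration at half of the fitted maximal effect; scaled between full activation by ribose 5 phosphate and full inhibition by luteolin; about four in five hits inhibit and the cells do not say which; series up to 57 µM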
# TsaE inh: displaces an ADP probe from E. coli YjeE (TsaE) | purified YjeE, fluorescence polarisation of a bound ADP probe | AID 605 | Potency, µM | P0AF67 | 71,000 compounds, 0.05% hits; active = well fitted falling curve; inconclusive = weaker or top-dose-only fall, or a rising curve; inactive = flat or poorly fitted curve;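 further: top concentration of the series not given in the record; excess ADP was the control for the full effect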
#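 Fluorescence polarization of a BODIPY Texas Red–ADP probe (2 uM) bound to purified YjeE (10 uM) was read after 15 min room-temperature incubation with compounds. Loss of polarization marks inhibitors; ADP serves as titrated control.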
# Starred values were filed as active, the others as inactive; i = inactive; ? = inconclusive; nt = no result given. The list is partial, so the mix of outcomes need not match the whole.
Bst PK mod,TsaE inh,SMILES
>57,i,O=C(CN(Cc1cccs1)C(=O)CN1C(=O)COc2ccccc21)NCc1ccco1
>57,i,COc1ccc(-n2c(SCC(=O)Nc3ccc4c(c3)OCO4)nnc2C(C)N2CCCCC2)cc1 (stereo not drawn)
nt,i,COc1ncc2nc(C)c(=O)n(-c3ccccc3)c2n1
>25.6,nt,CNC(=O)c1cc2ccccc2o1
>57,i,Cc1cc(C)n(-c2nc(Nc3ccccc3)nc(-n3nc(C)cc3C)n2)n1
>57,i,COC(=O)c1ccc(CN2C(=O)NC3(CCCCC3C)C2=O)o1 (stereo not drawn)
>57,i,Cc1cc(C)c(NC(=O)CSc2nnc(Cc3cccn3C)n2-c2ccc(F)cc2)c(C)c1
>57,i,Cn1c(SCC(=O)c2ccccc2)nc2cccnc21
nt,i,O=C1C2ON(c3ccccc3)C(c3ccccn3)C2C(=O)N1c1ccc(Br)cc1 (stereo not drawn)
>57,i,CCOc1ccc(C(C)(N)C(=O)O)cc1 (stereo not drawn)
>25.6,nt,CCC(=O)N(Cc1cccs1)C1CCOC(C)(C)C1 (stereo not drawn)
>57,i,CCCCNC(=O)Cn1c(-c2ccc(OC)cc2)noc1=O
>57,i,O=C(Nc1cc(C(F)(F)F)ccc1N1CCOCC1)c1n[nH]c(=O)c2ccccc12
>25.6,nt,c1ccc(OCc2nn3c(-c4ccco4)nnc3s2)cc1
nt,i,O=C(NCCC1=CCCCC1)c1cc2c(s1)CS(=O)(=O)C2

Bst PK mod,TsaE inh,SMILES
nt,i,Cn1c(=O)c2[nH]c(-c3ccccc3)nc2n(C)c1=O
>57,i,Cc1ccc(-n2c(SCC(=O)N3CCOCC3)nnc2-c2cccnc2)cc1C
>57,i,CCCCn1c(SCC(=O)c2ccc3c(c2)OCCO3)nnc1-c1ccoc1C
nt,i,CCCOc1cc(N)ccc1C(=O)OCCN(CC)CC
0.954*,i,O=C(O)c1cccc(COc2ccc(CO)cc2Cl)c1
>57,i,N#CC(c1nc2ccccc2nc1N1CCCC1)S(=O)(=O)c1cccs1 (stereo not drawn)
>25.6,nt,COc1ccc(CNc2oc(COc3ccccc3Cl)nc2C#N)cc1
>57,i,Cc1ccccc1C(NC(N)=O)c1ccccc1 (stereo not drawn)
nt,i,O=C(OCCN1CCOCC1)C1(c2ccccc2)CCCCC1
>25.6,nt,Cc1cc(=O)oc2c(CN3CCC(C)CC3)c(O)c(Cl)cc12
nt,i,COc1ncc2nc(-c3cccs3)c(=O)n(-c3ccccc3)c2n1
>57,i,CCOC(=O)CSc1nc(N)c(C#N)c(CC(C)C)c1C#N
nt,i,CCN(CCCNS(=O)(=O)c1ccc2c(c1)oc(=O)n2C)c1cccc(C)c1
nt,i,CCOc1ccc(C2c3c(oc4ccccc4c3=O)C(=O)N2c2ccccn2)cc1OC (stereo not drawn)
>57,i,COC(=O)Cc1c(C)c2c(OCc3nn[nH]n3)cc(C)cc2oc1=O

Bst PK mod,TsaE inh,SMILES
i,i,O=C1NC(c2ccccc2Cl)Nc2ccccc21 (stereo not drawn)
>57,i,O=S(=O)(c1ccc2c(c1)OCCCO2)N1CCNCC1
>57,i,CCOC(=O)CSc1nnc(C)n1N
>57,i,CCCn1c(SCC(=O)N2CCCc3ccccc32)nnc1-c1ccccn1
>57,i,Cc1ccc(NC(=O)CSc2nnc(-c3ccccc3C)o2)cc1C
nt,i,Cc1nc2cnc(OCc3ccccc3)nc2n(CCc2ccccc2)c1=O
>57,i,CC(NS(C)(=O)=O)C(c1cccs1)N1CCN(c2ccccc2)CC1 (stereo not drawn)
?,i,Cc1ccc(Nc2nc3nonc3[nH]c2=O)cc1
nt,i,CC1=NCCN1S(=O)(=O)c1ccc(Br)c(C)c1
nt,i,CCC(=O)Nc1nc2c(OC)ccc(OC)c2s1
?,i,CCOC(=O)c1cc(-c2ccc(N)cc2)sc1N
>57,i,O=C(CSc1nnc(CNc2ccccc2)o1)c1ccc2c(c1)OCCO2
>57,i,CC1CCCCC1NC(=O)c1ccc2c(c1)[nH]c(=O)n2C1CCCC1 (stereo not drawn)
>57,i,O=C(O)CCn1[nH]c(=O)ccc1=O
>57,i,CCN1CCN(c2nc3c(c(=O)n(C)c(=O)n3C)n2CCSc2nccc(C)n2)CC1

Bst PK mod,TsaE inh,SMILES
>57,i,Nc1nc(SCc2ccc3c(c2)OCO3)n[nH]1
nt,i,COc1cccc(Cn2c(=O)c(-c3ccccc3)nc3cnc(N4CCN(C)CC4)nc32)c1
>57,i,CCc1ccc2[nH]c(=O)c(C(c3nnnn3CC3CCCO3)N3CCCc4ccccc43)cc2c1 (stereo not drawn)
>57,i,c1ccc(-n2nnnc2Sc2n[nH]c(-c3ccncc3)n2)cc1
>57,i,CCn1ncc(Br)c1C(=O)Nc1ccc(F)cc1F
>57,i,COc1ccc(NC(=O)CSc2ccccn2)cc1OC
>57,i,COc1ccccc1CN1C(=O)CCC1(C)C(=O)NC1CCCCCC1 (stereo not drawn)
>25.6,nt,C[N+]1(CCNC(=O)/C=N/O)CCCCC1
>57,i,C=CCN=C1SCC(=O)N1S(=O)(=O)c1ccccc1
nt,i,Cc1ccc(CNC(=O)CS(=O)Cc2nc(-c3ccccc3C)oc2C)cc1 (stereo not drawn)
>57,i,COc1ccc(N2CC(C(=O)Nc3ccc4c(c3)OCO4)CC2=O)cc1 (stereo not drawn)
>57,i,OC(COc1ccccc1)CSc1ncn[nH]1 (stereo not drawn)
nt,i,Cc1cc(C)nc(Sc2c(F)c(F)c(C(F)(F)F)c(F)c2F)n1
>57,i,C=C(C)Cn1c(N2CCC(Cc3ccccc3)CC2)nc2c1c(=O)[nH]c(=O)n2C
nt,i,COc1cccc(Cn2c(=O)c(-c3cn(C)c4ccccc34)nc3cnc(N4CCNCC4)nc32)c1

# 4 of the compounds above, comma-delimited:
mol,Bst PK mod,TsaE inh
COc1ccc(NC(=O)CSc2ccccn2)cc1OC,>57,i
COc1ccccc1CN1C(=O)CCC1(C)C(=O)NC1CCCCCC1 (stereo not drawn),>57,i
C[N+]1(CCNC(=O)/C=N/O)CCCCC1,>25.6,nt
C=CCN=C1SCC(=O)N1S(=O)(=O)c1ccccc1,>57,i

# Continued.
Bst PK mod,TsaE inh,SMILES
>57,i,CC1(C)Cc2c(sc3nc(SCC(=O)O)[nH]c(=O)c23)CO1
>57,i,Cn1c(=O)c2c(nc(NCCCO)n2Cc2cccc(Br)c2)n(C)c1=O
>57,i,Cc1ccc(S(=O)(=O)NCc2nc3ccccc3c(=O)n2N)cc1
nt,i,CS(=O)(=O)N1CCN(C(=O)CCC2CCCC2)CC1
>57,i,Cc1cc2oc(C(=O)NCc3ccc4c(c3)OCO4)c(C)c2cc1C
>57,i,CCOC(=O)c1cc(C)n(CCc2ccccc2)c1C
nt,i,O=c1[nH]c(NCCCO)nc2c1C1(CCCC1)Cc1ccccc1-2
>57,i,O=C(C1CCCCC1)N1CCN(S(=O)(=O)c2ccc(Cl)cc2)CC1
>57,i,O=C(Nc1cccnc1)c1ccc(Cl)c(S(=O)(=O)N2CCCCCC2)c1
>25.6,nt,CC1(C)Cc2c(c(N3CCOCC3)nc3snc(N)c23)CO1
>57,i,CC(=O)c1c(COC(=O)c2ccncc2)nc2ccccc2[n+]1[O-]
nt,i,COc1ccc(S(=O)(=O)N2CCCN(S(=O)(=O)c3ccc(OC)cc3C)CC2)c(C)c1
>57,i,O=S(=O)(c1ccc(S(=O)(=O)N(Cc2ccco2)Cc2ccccc2Cl)cc1)N1CCCC1
nt,i,O=C(O)[C@@H](Br)[C@@H](Br)c1ccccc1[N+](=O)[O-]
>57,i,Cc1cc(=O)[nH]c2c1c(C)nn2C1CCCC1

# The final five compounds of the section before open the next one.
Bst PK mod,TsaE inh,SMILES
>57,i,CC(=O)c1c(COC(=O)c2ccncc2)nc2ccccc2[n+]1[O-]
nt,i,COc1ccc(S(=O)(=O)N2CCCN(S(=O)(=O)c3ccc(OC)cc3C)CC2)c(C)c1
>57,i,O=S(=O)(c1ccc(S(=O)(=O)N(Cc2ccco2)Cc2ccccc2Cl)cc1)N1CCCC1
nt,i,O=C(O)[C@@H](Br)[C@@H](Br)c1ccccc1[N+](=O)[O-]
>57,i,Cc1cc(=O)[nH]c2c1c(C)nn2C1CCCC1
?,?,CN1CCc2nc(NC(=O)c3cccc(S(=O)(=O)N4CCc5ccccc54)c3)sc2C1
nt,i,Cn1cnnc1SCc1ccc(F)c2ccccc12
nt,i,COC(=O)[C@H]1C[C@@H]1[C@H](NC(=O)c1cc(C)on1)c1ccccc1
>57,i,O=C(CS(=O)(=O)Cc1ccccc1)Nc1nnc(C2CCCCC2)s1
>57,i,CC(C)CCOP(=O)(c1ccc(N(C)C)cc1)C(O)c1ccccn1 (stereo not drawn)
>57,i,COC(=O)[C@@H](NC(=O)Nc1ccc(OC(F)(F)F)cc1)C(C)C
>57,i,O=C(Nc1cccc(F)c1)c1ccc(S(=O)(=O)NCC2CCCO2)cc1 (stereo not drawn)
nt,i,COc1ccccc1N1CC(O)=C(c2nc3ccccc3c(=O)[nH]2)C1=N
nt,i,COc1ccc(CC(=O)NCc2nnc(SCC(=O)Nc3nccs3)n2-c2ccccc2)cc1
>57,i,CCOC(=O)c1[nH]c2ccc(OC)cc2c1NC(=O)C(C)N1CCSCC1 (stereo not drawn)
nt,i,Cc1noc(C)c1C(=O)N1CCC[C@@]2(CCN(C(=O)Nc3ccccc3)C2)C1
nt,i,Cc1nc(NC2CCCCC2)c2nc(-c3ccccc3)n(CCCN(C)C)c2n1
nt,i,O=C1CCCC2=C1C(c1ccco1)Nc1ccc(C(=O)c3ccccc3)cc1N2 (stereo not drawn)
nt,i,CN(C)C(=O)c1ccc(-c2cncnc2N2CCNCC2)cc1
>25.6,nt,Cc1ccc2c(c1)C(CCN)C(=O)N2Cc1ccccc1 (stereo not drawn)

Bst PK mod,TsaE inh,SMILES
>57,i,CCc1nnc(NC(=O)CCC(=O)N2CCN(Cc3cc(Cl)ccc3OC)CC2)s1
>57,i,Cc1cccc(NC(=O)Cn2c(=O)n(C)c3ccccc32)c1
>57,i,CC(C)NC(=O)CSc1nncn1-c1ccccc1
nt,i,CN(C)CCCN1C(=O)c2oc3ccc(F)cc3c(=O)c2C1c1cccnc1 (stereo not drawn)
nt,i,COc1ccc(-c2cc([C@H](O)[C@@H]3CCCCN3)c3ccccc3n2)cc1
nt,i,CC1=CC(C)(C)Nc2ccccc21
>57,i,CCOc1cc(C2C(C#N)=C(N)OC3CCCC(=O)C32)ccc1OCCN1CCOCC1 (stereo not drawn)
>57,i,COc1cc(CN2CCC(C(=O)N3CCN(c4ccccc4F)CC3)CC2)cc(OC)c1O
nt,i,O=S(=O)(NCCSc1nnc(-c2ccco2)n1-c1ccccc1)c1ccccc1
>57,i,O=C(Nc1ccc2nc(-c3ccco3)c(-c3ccco3)nc2c1)N1CCCCCC1
>57,i,O=c1[nH]c2ccc(Cl)cc2c(-c2ccccc2)c1N1CCN(c2ccccn2)CC1
>57,i,NC1=NC(=O)CC(C(=O)NCc2ccccc2)S1 (stereo not drawn)
nt,i,CCCN=Cc1sc2ccc(OCC)cc2c1O
nt,i,O=c1c(-c2ccc(F)cc2)nc2cnc(Oc3cccc(Cl)c3)nc2n1C1CC1
>57,i,Cc1c(C(=O)OCC2CCCO2)[nH]c2c1C(=O)CC(c1ccco1)C2 (stereo not drawn)

# Given comma-delimited: 2 of the compounds above.
molecule,Bst PK mod,TsaE inh
COc1ncc2nc(C)c(=O)n(-c3ccccc3)c2n1,nt,i
CCC(=O)Nc1nc2c(OC)ccc(OC)c2s1,nt,i

# Following part:
Bst PK mod,TsaE inh,SMILES
>57,i,COc1ccc2c(c1)c(C(O)CN1CCC3(CC1)OCCO3)c(C)n2C (stereo not drawn)
>57,i,c1coc(CN(Cc2cccs2)Cc2nnnn2C2CCCCC2)c1
nt,i,Clc1ccc(-n2nnnc2-c2ccccc2)cc1Cl
nt,i,O=C(Nc1ccc2c(c1)OCO2)c1cccc(Cl)c1
>57,i,CCOC(=O)c1c(C)[nH]c(C(=O)CSc2nnnn2-c2ccccc2)c1C
>57,i,COC(=O)C1=C(N)OC2=C(C(=O)CC(C)(C)C2)C1c1cccnc1 (stereo not drawn)
nt,i,COc1ccc(-c2nc(CN3CCC(C(=O)N4CCc5ccccc54)CC3)c(C)o2)cc1OC
nt,i,CCCn1c(C)nc2c(N3CCOCC3)nc(C)nc21
>57,i,Cc1ccc(NS(=O)(=O)c2cccc(C(=O)n3ncc(C#N)c3N)c2)c(C)c1
>57,i,CCn1c(COc2ccccc2C)nnc1SCC(=O)O
>57,i,CC(=O)Nc1ccc(OCC(O)CN2CCN(c3cccc(Cl)c3)CC2)cc1 (stereo not drawn)
>57,i,c1ccc(Cc2nnc3sc(-c4cccnc4)nn23)cc1
nt,i,Nc1nc(SCc2nc3scc(-c4cccs4)c3c(=O)[nH]2)n[nH]1
nt,i,COc1ccc2c(c1)N(C)C(=O)CC(c1ccccc1)=N2
nt,i,C[C@](Cc1ccc(O)c(O)c1)(NN)C(=O)O

Bst PK mod,TsaE inh,SMILES
>57,i,CC12CN3CC(C)(CN(C1)C3c1ccc3c(c1)OCO3)C2=O (stereo not drawn)
>57,i,CC(NC(=O)C1CCN(S(=O)(=O)N2CCCCCC2)CC1)c1ccccc1 (stereo not drawn)
>57,i,CCOC(=O)c1cnc2c(C(F)(F)F)cccc2c1N1CCOCC1
>57,i,CC(O)COc1ccc(/C(=N/O)c2ccccc2)cc1 (stereo not drawn)
>57,i,COc1ccc(C(=O)COC(=O)CCn2nnc(-c3cccc(O)c3OC)n2)cc1
nt,i,COc1ccc(C(=O)N2CCC[C@@]3(CCN(c4ncccn4)C3)C2)cc1
nt,i,CSC1=NCCN1C(=O)Cc1ccc(Cl)cc1
nt,i,CC1(C)Cc2c(C#N)c(SCC(=O)c3ccccc3)nc(N3CCOCC3)c2CO1
>57,i,O=C(Nc1ccccc1F)c1ccncc1

# Screening data as filed in PubChem.
